Source: PubChem BioAssay
Cruzain inh Det – cruzain (T. cruzi) inhibition with detergent | Potency, µM, for the others: max response, negative = inhibition, hits mostly inhibitors | P25779 | purified cruzain, Z-FR-AMC fluorescence, 0.01% Triton | actives 0.43% (n = 200,000); active = well fitted curve in the direction sought with a large enough effect; inconclusive = small, poorly fitted or top-dose-only effect, or another doubt; inactive = no such curve, though single readings can be large; an effect the other way counts as inactive or inconclusive;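 also: plate controls were neutral wells for no effect and buffer without enzyme for full effect; nearly all actives have a fitted effect of over 40% in size; top concentration of the series not given in the record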
Target sequence (P25779 123-467 limits assumed): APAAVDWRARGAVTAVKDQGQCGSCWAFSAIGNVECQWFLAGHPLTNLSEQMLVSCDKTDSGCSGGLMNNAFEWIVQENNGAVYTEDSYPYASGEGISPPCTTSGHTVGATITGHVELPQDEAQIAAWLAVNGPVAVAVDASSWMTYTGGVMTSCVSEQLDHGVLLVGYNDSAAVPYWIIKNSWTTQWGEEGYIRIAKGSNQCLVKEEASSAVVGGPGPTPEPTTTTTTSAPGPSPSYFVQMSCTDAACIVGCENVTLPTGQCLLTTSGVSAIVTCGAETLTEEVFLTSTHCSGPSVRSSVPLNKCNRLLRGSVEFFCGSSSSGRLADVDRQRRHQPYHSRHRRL
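Detergent-containing arm of a paired screen for aggregation-based inhibition: 0.01% Triton X-100 present. Cruzain at 1.5 nM cleaved 2 uM Z-FR-AMC at pH 5.5 with 5 mM DTT; AMC fluorescence gain over 60 s measured activity.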
Lassa entry inh – blocks Lassa virus binding to or entry into cells. Lassa virus pseudotype entry inhibition, cell reporter; control for the full effect not named in the record. Potency, µM (doses to about 37.9 µM), for inactives: at the top dose activity change, negative = inhibition, actives largely listed as inhibitors. actives 1.2% (n = 300,000). AID 540256; active means well fitted inhibition curve with a large enough effect; inconclusive means small, poorly fitted or top-dose-only effect, or effect the other way; inactive means flat fitted curve, though single readings scatter; tested in HEK293 cells; also: % is scaled to controls: 0 for no effect and ±100 for the full control effect; nearly all actives have a fitted effect of over 50% in size; luciferase read-out
SARS PLpro yeast – blocks SARS-CoV papain-like protease in a yeast assay; S. cerevisiae expressing SARS-CoV PLpro, growth rescue; control for the full effect not named in the record; Potency, µM (titrated, usually from 32.9 µM), without a hit: at the top dose activity, positive = growth rescue; actives 0.19% (n = 330,000); AID 485353; also: 0% is about no effect; nearly all actives have a fitted effect of over 55% in size; growth read by luminescence after 48 h
NS1 inh – blocks influenza NS1 protein function; S. cerevisiae slowed by influenza A NS1, growth recovery by OD600; Potency, µM (highest dose often 46.1 µM), without a hit: at the top dose activity, positive = more growth; actives 0.4% (n = 270,000); also: actives are rising curves; nearly all actives have a fitted effect of over 50% in size
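Compounds were scored for reversing the slow growth caused by influenza A NS1 in S. cerevisiae, measured by optical density at 600 nm. Assay medium contained 2% galactose at pH 6.0; NS1-free yeast of the same strain were the positive control.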
RE007 growth inh – less growth of the S. pombe RE007 Vpr strain; Potency, µM (highest dose often 92.2 µM), inactives show at the highest dose activity change, negative = less growth; actives 0.21% (n = 360,000); S. pombe RE007 Vpr strain, BacTiter-Glo ATP luminescence, 24 h; control for the full effect not named in the record; AID 651644; active = well fitted falling curve with a large enough effect; inconclusive = small, poorly fitted or top-dose-only effect; inactive = no such curve, though single readings can be large or run the other way;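 also: % is scaled to controls: 0 for no effect and ±100 for the full control effect; nearly all actives have a fitted effect of over 50% in size; the assay follows cell death caused by Vpr and the record does not say whether a fall means rescue or toxicity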
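Fission yeast RE007 carrying one integrated HIV-1 vpr copy, seeded at OD 0.01 in PMG+AL medium with 23 nL pinned compound. Grown 24 h at 30 degrees; viability read by BacTiter-Glo luminescence after 5 min.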
Cruzain noTriton – blocks cruzain activity in detergent-free assay; purified cruzain, Z-FR-AMC fluorescence, no detergent; actives 2.3% (n = 200,000); P25779; AID 1476; Potency, µM, inactives show max response, negative = inhibition, usual class: inhibitors; active = well fitted curve in the direction sought with a large enough effect; inconclusive = small, poorly fitted or top-dose-only effect, or another doubt; inactive = no such curve, though single readings can be large; an effect the other way counts as inactive or inconclusive;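 also: plate controls were enzyme without inhibitor for no effect and buffer without enzyme for full effect; nearly all actives have a fitted effect of over 40% in size; top concentration of the series not given in the record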
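Detergent-free condition (0.00005% Triton X-100) in acetate buffer pH 5.5 with DTT. 1.5 nM enzyme and compound were pre-mixed 15 min, then 2 uM Z-FR-AMC substrate added; reaction progress from fluorescence change between first and third reads (60 s).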
MARV entry inh – blocks Marburg virus binding to or entry into cells. actives 1.8% (n = 300,000). Marburg virus pseudotyped entry inhibition, cell reporter; control for the full effect not named in the record; about a third of the inactives were read at about 46 µM. Potency, µM (top dose mostly 37.8 µM), inactives show top-dose activity change, negative = inhibition, actives largely listed as inhibitors. AID 540276; active = well fitted inhibition curve with a large enough effect; inconclusive = small, poorly fitted or top-dose-only effect, or effect the other way; inactive = flat fitted curve, though single readings scatter; tested in HEK293 cells; about a fifth of its hits are not listed in these tables; also: % is scaled to controls: 0 for no effect and ±100 for the full control effect; luciferase read-out
2A StopGo – FMDV 2A StopGo reporter, luciferase signal | Potency, µM (top dose mostly 57.9 µM), inactives show at the highest dose signal change, negative = less light | actives 1.2% (n = 410,000) | human cells with a luciferase reporter of 2A StopGo recoding; control for the full effect not named in the record; active = well fitted falling curve with a large enough effect; inconclusive = small, poorly fitted or top-dose-only effect; inactive = no such curve, though single readings can be large or run the other way; tested in HEK293T cells; also: % is scaled to controls: 0 for no effect and ±100 for the full control effect; nearly all actives have a fitted effect of over 45% in size; luciferase light after 4 h
* = called active by the depositor; ? = inconclusive; / = not tested or not shown; [ ] = another dose, or the depositor's remark. Unless noted, calls follow the shape of the dose curve; as a rule, active means well fitted rising curve with a large enough effect; inconclusive means small, poorly fitted or top-dose-only effect; inactive means no such curve, though single readings can be large or run the other way. Potency is read from the fitted curve at half-maximal effect.

Structure,Cruzain inh Det,Lassa entry inh,SARS PLpro yeast,NS1 inh,RE007 growth inh,Cruzain noTriton,MARV entry inh,2A StopGo
COC(=O)Cn1c(CN(C)Cc2ccccc2)nc2c1c(=O)n(C)c(=O)n2C,/,/,-1%,-5%,-1%,/,/,?
Cc1ccc(NC(=S)N2CCC(N(C)CC3CCCO3)CC2)c(C)c1 (configuration not stated),5.6%,-13%,1%,0%,18%,-3%,15%,9%
CCCOc1ccc(C(CC(=O)O)NC(=O)Cc2ccccc2)cc1 (configuration not stated),/,?,0%,3%,1%,/,-4%[46.1 µM],-9%
Cc1cc(=O)n2[nH]c(SCc3c(F)cccc3Cl)nc2n1,/,?,/,/,4%,/,?,18%
CCCCCN1C(C(=O)c2ccccc2)=C(NC(=O)c2ccc(OC)c(OC)c2)c2ccccc2S1(=O)=O,-4.5%,7%[46.1 µM],/,/,/,-4%,-18%[46.1 µM],?
O=[N+]([O-])c1ccc(NC(=S)N/C(=N/CS(=O)(=O)c2ccccc2)c2ccccc2)cc1,-18%,1%,6%,5%,-9%,-9%,?,8%
CCN=c1sc2ccccc2n1CC(O)COc1ccccc1 (configuration not stated),3.8%,-4%,8%,-24%,-4%,-4%,-25%,?
COc1ccc(C(=O)NCc2nnc(SCC(=O)Nc3ccccc3OC)o2)cc1,/,-10%[46.1 µM],27%,5%,17%,/,8%[46.1 µM],-7%
CCn1c(CCNC(=O)c2ccco2)nc2ccccc21,/,/,2%,0%,2%,/,5%[46.1 µM],1%
CC(=O)N1c2ccc(S(=O)(=O)N3CCCCCC3)cc2CC1C(=O)NCc1ccccc1F (configuration not stated),2.0%,?,/,/,/,2%,/,-16%
CCN(CC)CCNC(=O)C(=O)NCC1OCCN1S(=O)(=O)c1ccc(Cl)cc1 (configuration not stated),/,20%,-9%,-3%,-6%,/,8%,-14%
Cc1cc(C)c2c(n1)SCC(=O)N2CC(=O)NCCC1=CCCCC1,-1.2%,/,6%,-8%,-4%,-4%,/,-21%
COc1ccccc1OCC(=O)Nc1nonc1NC(=O)COc1ccccc1OC,-0.7%,9%,15%,5%,2%,-9%,-26%,?
Cc1cccc(N2CC(C(=O)Nc3nnc(SCC(=O)Nc4cc(C)on4)s3)CC2=O)c1 (configuration not stated),-3.2%,11%,-3%,24%,0%,10µM*,16%,3%
COC(=O)CNC(=O)c1cn(-c2ccc(C)c(C)c2)c(=O)c2ccccc12,/,/,0%,-3%,2%,/,/,14%
Cc1cccc(-c2nc(S(=O)(=O)c3ccc(Cl)cc3)c(N3CCCCCC3)o2)c1,-21%,-1%[46.1 µM],/,/,/,-5%,?,-14%
Cc1cc(=O)oc2cc(OCC(=O)NCCCN3CCOCC3)c(Cl)cc12,/,8%[46.1 µM],-2%,-19%,10%,/,?,12%
O=C1CSC(=Nc2cc(Cl)ccc2Cl)N1,8.1%,-8%,-17%,-46%,10%,-12%,26%,-23%
COc1cc(-c2noc(C)c2C(=O)NCCO)cc(OC)c1OC,/,/,-3%,4%,-17%,/,/,-11%
COC(=O)c1cccc(Nc2ncnc3sccc23)c1,/,2%[46.1 µM],-8%,/,-4%,/,7%[46.1 µM],-23%
O=C(N/N=C/c1cc(Br)cc(Cl)c1O)c1ccc2c(c1)OCO2,/,?,/,/,-27%,/,?,3%
CCOCCn1c(COc2ccc(C)cc2)nc2ccccc21,-5.6%,2%,4%,-37%,-5%,-8%,-26%,11%
O=C(CN1CCN(CCN2C(=O)c3cccc4cccc(c34)C2=O)CC1)c1ccc(Cl)cc1,-9.3%,0%,-17%,12%,/,?,-20%,/
CCC(c1nnc(SCC(=O)Nc2ccc(C(N)=O)cc2)n1Cc1ccccc1)N(C)C (configuration not stated),/,29%,0%,9%,12%,/,8%,-7%
COc1ccc(/C=C/C(=O)Nc2ccc(-c3nnc4n3CCCCC4)cc2)c(OC)c1,14µM*,-2%,-1%,18%,3%,-27%,8%,-29%
COc1cc(/C=C2/C(=O)N(c3ccccc3)N=C2C)ccc1OS(=O)(=O)c1ccccc1,-6.8%,0%,-10%,3%,/,?,21%,/
CC(C)C(NC(=O)c1ccco1)C(=O)OCC(=O)c1ccccc1 (configuration not stated),/,/,0%,-21%,-2%,/,/,17%
COc1oc(-c2ccccc2)nc1C(F)(F)F,6.5%,9%,4%,0%,-3%,-10%,13%,/
COc1cc(CC(=O)NNC(=O)c2cc(C)oc2C)cc(OC)c1OC,-1.9%,-7%,-34%,-6%,-2%,-6%,5%,-19%
O=C(NCCOc1cccc2cccnc12)c1cccs1,/,-23%[46.1 µM],0%,/,-5%,/,-22%[46.1 µM],-12%
C/C(=N\NC(=O)c1ccc(F)cc1)c1ccc(NC(=O)Cc2ccccc2)cc1,/,?,0%,4%,1%,/,-18%,13%
COc1cc(-c2nnc(COC(=O)c3ccc(C)o3)o2)cc(OC)c1OC,/,-30%,-1%,/,-5%,/,0%,-24%
Cc1ccc(-c2csc(Cc3nc(-c4ccc5c(c4)CCC(=O)N5)cs3)n2)cc1,/,-12%,-11%,23%,-1%,/,-20%[46.1 µM],0%
COc1ccc(S(=O)(=O)NCC2CCCN(Cc3cccc(C(C)=O)c3)C2)cc1 (configuration not stated),/,/,1%,-3%,5%,/,/,-9%
COC(=O)CCC(=O)OC1(C)C(=O)C=C2C=C(C3CC3)N(C3CCCCC3)C=C2C1=O (configuration not stated),/,/,3%,6%,-7%,/,/,-11%
CCC(C)N1CCCC1C(=O)Nc1c(C)cc(C)cc1C (configuration not stated),-1.2%,14%,19%,-1%,-15%,4%,-10%,-8%
COC(=O)C1=C(SC)N(c2ccc(OC)cc2)C(c2ccccc2)CC1=O (configuration not stated),-6.3%,-22%,10%,-11%,26%,-10%,1%,6%
O=C(c1cc(F)ccc1F)C1CCCN(C(=O)c2ccc(F)cc2Cl)C1 (configuration not stated),/,?,-1%,-1%,-1%,/,?,?
COc1cc2oc(=O)cc(-c3ccc(-c4ccc(OC(F)(F)F)cc4)cc3)c2c(OC)c1OC,-0.6%,/,2%,/,3%,6%,/,0%
C[C@@H]1C=C(C(=O)NC2CC2)O[C@H](OCc2ccc(CO)cc2)C1,/,/,0%,3%,1%,/,/,-1%
Cc1nn(Cc2ccc(Cl)c(Cl)c2)c(C)c1NC(=O)c1cn(-c2ccccc2)nc1-c1ccccc1,0.5%,?,3%,1%,2%,-61%,?,?
COc1ccc(C(=O)NCC(c2cccnc2)N2CCN(c3ccc(F)cc3)CC2)cc1OC (configuration not stated),-5.2%,/,14%,-2%,-6%,14%,/,-12%
CC[C@@H]1C(c2ccccc2)=NN(c2ccccc2)[C@H]1C(=O)N1CCOC1=O,-2.8%,/,-6%,/,-3%,-15%,/,-23%
O=S(=O)(c1ccc(S(=O)(=O)N(Cc2ccccc2)Cc2ccco2)cc1)N1CCCC1,/,-26%,/,/,2%,/,-30%,-1%
COC(=O)C1=C(O)/C(=C\c2ccc(OCC(=O)Nc3ccc(OC)cc3)cc2)N=C1C,/,/,2%,8%,1%,/,/,-10%
Cc1ccc(C(=O)NC(C)c2ccc(C)c(C)c2)s1 (configuration not stated),/,-27%[46.1 µM],/,/,8%,/,-4%[46.1 µM],1%
CCCCCN(C(=O)CCC(=O)OCC(=O)N1CCCCC1CC)c1c(N)n(CCCC)c(=O)[nH]c1=O (configuration not stated),/,5%,/,/,4%,/,-19%,-9%
CC(C(=O)NCCc1nc2ccccc2[nH]1)n1cc([N+](=O)[O-])cn1 (configuration not stated),/,27%[46.1 µM],0%,/,-17%,/,3%[46.1 µM],-16%
CC1CCN(c2ccc(NC(=O)c3ccc(Br)o3)cc2)CC1,/,10µM*,3%,2%,12%,/,?,39%[activator]
CCOC(=O)c1c(NC(=O)c2c(C(=O)O)cccc2[N+](=O)[O-])sc(C)c1C,/,16%[46.1 µM],0%,-2%,-4%,/,18%[46.1 µM],-7%
Cc1cc(NC(=O)NC(=O)c2ccccc2F)no1,/,22%[46.1 µM],-1%,-5%,1%,/,?,3%
COc1ccccc1Nc1nc(N)nc(CN2CCN(Cc3ccc4c(c3)OCO4)CC2)n1,/,2%,0%,1%,-6%,/,14%[46.1 µM],-5%
CCN1c2ccccc2-c2nc3ccccc3n2C1c1cccs1 (configuration not stated),21%,6%,-74%,-47%,5%,13%,?,0%
O=C(Cc1ccc(Br)cc1)NC1CCN(Cc2ccccc2)CC1,/,/,0%,-14%,-4%,/,?,-24%
CC(C(=O)OCC(=O)c1ccc([N+](=O)[O-])cc1)N1C(=O)C2C3CCC(C3)C2C1=O (configuration not stated),/,0%[46.1 µM],0%,/,31%,/,-25%[46.1 µM],2%
O=CN1CCN(C(=S)Nc2ccc(OC(F)F)cc2)CC1,/,/,0%,-1%,29%,/,/,72%[activator]
COc1cc(O)c(CCC(=O)c2cc(OC)c(OC)c(OC)c2)c(OC)c1,-3.9%,?,23%,-10%,23%,8%,-6%,-20%
CC(NC(=O)Cc1cccs1)C(c1cccs1)N1CCOCC1 (configuration not stated),-6.5%,13%,-16%,4%,23%,-1%,-16%,-11%
CCn1nnc(NC(=O)COc2ccc(C3CCCCC3)cc2)n1,-4.0%,4%,?,-56%,-11%,?,-2%,?
